Anaer choline gr: inhibitors of anaerobic choline-dependent gram-negative bacterial growth. 55,000 tested, 0.2% active. Gram-negative bacterium anaerobic choline minimal medium, absorbance growth; hits give low values; many inactives read as strong as hits in the columns shown. calls only. AID 1963822;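 active = growth z-score on choline under -2 at 7 or 20 h with little or no fall on glycerol, limits in tiers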;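 also: stock transfer was 300 nL into about 50 µL; the organism is E. coli; final concentration not given here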
Anaer choline gr early: also measured in Anaer choline gr; calls as there; z-score; measured here: choline growth z-score, timepoint 1;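 score of optical density at 7 h as mean of two plates; lower means less growth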
Numbers without * were called inactive; i = inactive; & = joins results of further samples. Only part of the results is shown; count on the stated rates, not on these rows.

Anaer choline gr,Anaer choline gr early,smiles
i,-1.5,O=C(CSc1nccn2nc(-c3ccc(F)cc3)cc12)Nc1ccc(Br)cc1
i,-0.46,COc1ccccc1NC(=O)Nc1cc2c(cc1N1CCOCC1)n(C)c(=O)n2C
i,1.7,CCCN(C)S(=O)(=O)c1c(C)[nH]c(C)c1-c1nnc(C2CCC2)o1
i,-1.1,O=C(NC1CCCc2ccccc21)c1ccc(NC(=O)c2nsc3ccccc23)cc1 (stereo unspecified)
i,-0.58,Cc1cc(NC(=O)CCc2nc(CSc3nnc(-c4cccnc4)o3)no2)no1
i,1.9,COc1ccc(NC(=O)c2cccc(Oc3ccnc(-c4cccc(C)c4)n3)c2)cc1OC
i,-2.5,Cc1ccc2ccc3cc(C(=O)N4CCC(N5CCCCC5)CC4)nc3c2[nH]1
i,0.04,CCOC(=O)C1=C(C)NC(C)=C(C(=O)OC)C1c1ccc(Cl)cc1 (stereo unspecified)
i,-1.2,O=C(COc1ccccc1-c1nc(-c2ccccc2)no1)Nc1ccccc1F
i,-0.53,Cc1ccc(-c2nnc3sc(C4=Cc5ccccc5OC=C4)nn23)cc1
i,0.87,CCOC(=O)c1c(S(=O)(=O)N2CCC(C(=O)Nc3cc(OC)cc(OC)c3)CC2)c(C)n(C)c1C
i,-0.38,Cn1c(=O)n(Cc2ccccn2)c(=O)c2cnc(-c3ccncc3)nc21
i,-0.25,O=C(NC1CC(=O)N(c2ccccc2)C1)c1cc2ccccc2o1 (stereo unspecified)
i,0.14,Cc1ccc(C)c(NC(=O)n2ncc3cc(Cl)ccc32)c1
i,0.77,O=C(NCCc1ccccc1)N1CCN(Cc2nc3cc(Cl)ccc3o2)CC1
i,0.06,COc1ccc(Cn2c(SCc3ccccc3C)nc3ccncc32)cc1
i,-0.61,COc1ccc2c(c1)c(NC(C)=O)c1n2CC(C)(C(=O)NC2CCCC2)N(Cc2ccccc2)C1=O (stereo unspecified)
i,-1.8,O=C(c1ccc(F)cc1)n1nc(-c2cccnc2)nc1NCc1ccc(F)cc1
i,-1.2,CC[C@@H]1/C=C(\C)C[C@H](C)C[C@H](OC)[C@H]2O[C@@](O)(C(=O)C(=O)N3CCCC[C@H]3C(=O)O[C@H](/C(C)=C/[C@@H]3CC[C@@H](O)[C@H](OC)C3)[C@H](C)[C@@H](O)CC1=O)[C@H](C)C[C@@H]2OC
i,-0.53,CCC(=O)N1CCC(N(Cc2csc(-c3cccs3)n2)S(C)(=O)=O)CC1

Reformatted: 6 of the compounds above.
SMILES | Anaer choline gr | Anaer choline gr early
Cc1ccc2ccc3cc(C(=O)N4CCC(N5CCCCC5)CC4)nc3c2[nH]1 | i | -2.5
COc1ccc(Cn2c(SCc3ccccc3C)nc3ccncc32)cc1 | i | 0.06
Cc1ccc(-c2nnc3sc(C4=Cc5ccccc5OC=C4)nn23)cc1 | i | -0.53
O=C(COc1ccccc1-c1nc(-c2ccccc2)no1)Nc1ccccc1F | i | -1.2
O=C(c1ccc(F)cc1)n1nc(-c2cccnc2)nc1NCc1ccc(F)cc1 | i | -1.8
O=C(NCCc1ccccc1)N1CCN(Cc2nc3cc(Cl)ccc3o2)CC1 | i | 0.77

Part of the list above, with bars between the fields.
SMILES | Anaer choline gr | Anaer choline gr early
CCC(=O)N1CCC(N(Cc2csc(-c3cccs3)n2)S(C)(=O)=O)CC1 | i | -0.53
Cc1ccc(C)c(NC(=O)n2ncc3cc(Cl)ccc32)c1 | i | 0.14

The list continues.
Anaer choline gr,Anaer choline gr early,smiles
i,0.57,Cc1ccc(CNS(=O)(=O)c2cc(-c3cc(C(F)(F)F)on3)sc2C)cc1
i,0.82,Cc1nnc(-c2cc3ccccc3n2CC(=O)N2CCC(C)CC2)o1
i,-0.32,CCCCCOC(=O)Nc1nc(=O)n(C2O[C@H](C)[C@@H](O)[C@H]2O)cc1F (stereo partly specified)
i,-0.4,CC1CCN(S(=O)(=O)c2ccc3c(c2)-c2oncc2CO3)CC1
i,0.95,O=C(Nc1cccc2nsnc12)c1nc2ccccc2nc1N1CCOCC1
i,-1,COc1ccc(C)cc1NC(=O)N1CCN(C(=O)Cc2csc3ccccc23)CC1
i,0.6,O=S(=O)(NC1CC1)c1cc(-c2nc(-c3ccc(Cl)cc3)no2)cs1
i,-1.4,O=C(NCC1CCCO1)C1CCN(S(=O)(=O)c2ccc3c(c2)CCCN3C(=O)C2CCC2)CC1 (stereo unspecified)
i,0.05,O=C(C1CCN(S(=O)(=O)c2ccc(-c3noc(C4CC4)n3)cc2)CC1)N1CCOCC1
i,0.05&-0.28&-0.25&-0.16,CCCNC(=O)NS(=O)(=O)c1ccc(Cl)cc1
i,0.42,Cc1csc(-c2cc(S(=O)(=O)Nc3ccc(Cl)cc3F)cn2CC(=O)N2CCCC2)n1
i,-1.4,Cc1cc(C2CCCN2C(=O)C(C)C)on1 (stereo unspecified)
i,1.6,O=C(Nc1cccc(Cl)c1)Nc1nc(CC(=O)N2CCc3ccccc32)cs1
i,-0.59,CCCCCn1c(=O)c2sccc2n2c(CCC(=O)N3CCN(C4CCCCC4)CC3)nnc12
i,0.07,CCc1ccc(NC(=O)c2cccc(Nc3cnc4ccccc4n3)c2)cc1
i,0.18,O=C(Nc1ccc(F)c(Cl)c1)c1cccc(NC2=NC3CS(=O)(=O)CC3S2)c1 (stereo unspecified)
i,-1,COc1ccc(S(=O)(=O)Nc2cccc(N3CCCS3(=O)=O)c2)cc1
i,0.64,CCc1nc(-c2cc(S(=O)(=O)N3CCC(C(=O)NC4CC4)CC3)c(C)s2)no1
i,-1.4,O=C(Nc1ccc(F)cc1)n1ncc2cc(Cl)ccc21
i,-1.3,CCOC(=O)c1cnc(SC(CC)C(=O)N2CCOc3ccc(C)cc32)nc1N (stereo unspecified)

(continued)
Anaer choline gr,Anaer choline gr early,smiles
i,-0.55,CC(C)Oc1ccc(C2CC(=O)Nc3c2c(=O)n(C)c(=O)n3C)cc1 (stereo unspecified)
i,-0.69,Cn1c(=O)n(-c2ccc(F)cc2)c2nc(-c3ccc(F)c(F)c3)nc(C(N)=O)c21
i,-0.57,CCCCn1c(=O)c2sccc2n2c(CCC(=O)NC3CC3)nnc12
i,-0.89,O=C1COc2cc(S(=O)(=O)N3CCC(C(=O)N4CCC(N5CCCCC5)CC4)CC3)c(Cl)cc2N1
i,-0.17,O=C1Nc2ccc(Cl)cc2C1Cc1ccc(OC2CCCC2)cc1 (stereo unspecified)
i,1.9,CCOCCOC(=O)c1ccc2c(c1)N(Cc1ccccc1F)C(=O)c1ccccc1S2
i,0.48,Cc1noc2nc(C(=O)O)nc(N3CCCC3)c12
i,-1,Cc1ccc(NC(=O)N2CCC(CN3CCCCC3)CC2)cc1Cl
i,-0.09,O=C1C(=O)N(C2CCN(C(=O)c3cccc(Cl)c3)CC2)CCN1Cc1ccccc1
i,0.2,OCc1ccccc1
i,0.92,CCCCN1C(=O)C(C)(C(=O)NC2CCN(Cc3ccccc3)CC2)Oc2cccnc21 (stereo unspecified)
i,1.4,C=Cc1c(C)c2cc3[nH]c(cc4nc(cc5nc(cc1[nH]2)C(C)=C5CCC(=O)O)C(CCC(=O)O)=C4C)c(C)c3C=C
i,-0.44,COc1ccccc1CNC(=O)c1cccc(C2CCCN(C(=O)NC(C)C)C2)c1 (stereo unspecified)
i,0.12,CCCCn1c(C2CCCO2)nc2ccccc21 (stereo unspecified)
i,-0.1,COC(=O)c1ccc2c(=O)n(CCCC(=O)N3CCc4ccccc4C3)c(=S)[nH]c2c1
i,-0.95,CC(C)(C)C1CCc2c(sc3nc(CCC(=O)NC4CC4)[nH]c(=O)c23)C1 (stereo unspecified)
i,0.19,COc1ccc(NC(=O)NCc2ccc3c(c2)N(C(=O)c2ccc(C)cc2)CC3)cc1OC
i,0.58,CN(C)S(=O)(=O)N(CC(=O)N1CCN(c2ccc(F)cc2)CC1)c1ccccc1
i,0.58,Cc1ccccc1NC(=O)CN1C(=O)CSc2ccccc21
i,0.03,O=C(Nc1cccc2nsnc12)C1CCN(S(=O)(=O)N2CCOCC2)CC1

New compounds follow
Anaer choline gr,Anaer choline gr early,smiles
i,2.1,COc1ccc(C2Nc3ccc(C)cc3[C@H]3OCCC[C@@H]23)cc1C (stereo partly specified)
i,-1.2,O=S(=O)(Nc1ccc(N2CCCS2(=O)=O)cc1)c1cc(F)ccc1F
i,-0.55,CCn1c(=O)c2sc(N3CCCC3)nc2n(CC(=O)Nc2ccc(OC)c(Cl)c2)c1=O
i,1,Cc1c(C2=CCN(S(=O)(=O)c3ccc(Cl)cc3)CC2)c2ccccc2n1C
i,-0.26,Cc1cc(C)c(S(=O)(=O)NCCn2c(-c3ccncc3)nc3cccnc32)cc1C
i,-1.5,COc1ccc(-n2nc(C(=O)Nc3ccccc3OC)c3c4ccccc4n(C)c3c2=O)cc1
i,1.2,c1ccc(-c2nn3c(-c4ccc5ccccc5n4)nnc3s2)nc1
i,-0.21,CC(C)Cn1cnc2nc(CSc3ccccc3NC(=O)Nc3ccccc3Cl)cc(=O)n21
i,-0.97,Cc1nn(-c2ccc(F)cc2)c2sc(C(=O)NCCCN3CCCC3)cc12
i,0.6,COc1ccc(Cl)cc1S(=O)(=O)N1CCCC(C)(C(=O)NCc2cccc(F)c2)C1 (stereo unspecified)
i,-0.75,COc1ccccc1N1CCN(c2ccc(=O)n(CC(=O)N3CCOCC3)n2)CC1
i,-0.48,CCn1nnc2cc(-c3noc(-c4cnccn4)n3)ccc21
i,-0.57,O=C(Nc1cccc(OCc2cc(=O)n3cc(Cl)ccc3n2)c1)C1CCCCC1
i,0.75,O=C(CSc1nccn2nc(-c3ccccc3)cc12)Nc1ccc2c(c1)OCCO2
i,-0.71,Cc1nc(N2CCOCC2)cc(N2CCN(S(=O)(=O)c3ccc4c(c3)OCCO4)CC2)n1
i,0.65,Cc1cc(C)n(CC(=O)Nc2oncc2-c2ccccc2)c(=O)c1S(=O)(=O)c1ccc(Cl)cc1
i,-0.82,COc1ccc2c(c1)NC1(CCN(S(=O)(=O)c3cc(F)ccc3F)CC1)c1cccn1-2
i,0.48,COc1cccc(Oc2ccc(NC(=O)c3cc4cc(Br)ccc4o3)cn2)c1
i,-0.14,CCOc1cc(-c2noc(-c3ccccc3)n2)ccc1OCC(=O)Nc1nc(C(C)C)cs1
i,1.4,COc1ccc(Sc2cc3c(cc2NS(=O)(=O)c2ccc4c(c2)CCC4)n(C)c(=O)n3C)cc1

(more compounds)
Anaer choline gr,Anaer choline gr early,smiles
i,0.71,Cc1ccc(-c2noc(CCC(=O)Nc3nnc(CC(C)C)s3)n2)c(=O)n1C(C)C
i,0.83,CCCCc1nnc2sc(COc3ccccc3OC)nn12
i,0.49,Cc1ccsc1C(=O)N1CCCC1c1c(C)noc1C (stereo unspecified)
i,0.29&0.54,CC(=O)S[C@@H]1CC2=CC(=O)CC[C@]2(C)[C@H]2CC[C@@]3(C)[C@@H](CC[C@@]34CCC(=O)O4)[C@H]12
i,-0.65,C#CCOc1ccc(C2Nc3c(C)cc(C)cc3[C@H]3OCCC[C@@H]23)cc1 (stereo partly specified)
i,0.58,O=C1CC(c2ccccc2Cl)Sc2ccccc2N1 (stereo unspecified)
i,-0.19,Cc1cccc(Nc2nc3nonc3nc2N2CCOCC2)c1C
i,-0.47,Cn1cc(-c2nc(-c3ccncc3)no2)c(=O)c2cc(F)c(N3CCCCC3)cc21
i,-1.1,O=C(NCCn1c(-c2ccccc2)nc2ccccc21)Nc1ccc(Br)cc1
i,2,CCOc1ccc(NC(=O)N2CC(=O)N(CC(=O)NCc3cccc(Cl)c3)c3ccccc32)cc1
i,0.43,CC(C(=O)NCc1ccc(Cl)cc1)C1Sc2ccccc2N(Cc2ccccc2F)C1=O (stereo unspecified)
i,0.14,CCCc1cc(C2CCCN2Cc2ccc(O)cc2)no1 (stereo unspecified)
i,0.09,Cc1nc2cc(-c3noc(-c4ccc(Cl)cc4Cl)n3)ccc2o1
i,-1.3,O=S(=O)(c1ccc(Br)s1)N1CCC(CN2CCCCC2)CC1
i,0.51,COc1cccc(-c2nc3c4ccccc4ncn3n2)c1
i,0.24,CC(=O)NCCNC(=O)CCc1nc2sc3c(c2c(=O)[nH]1)CCCCC3
i,-0.25,CC(C)NC(=O)c1ccc(-c2nc3cc(NS(=O)(=O)c4ccc(F)cc4)ccc3n2C)cc1
i,0,Cc1cccn2c(=O)c(C(=O)N3CCC(C)CC3)cnc12
i,0.67,COc1cc(C)c(C)cc1S(=O)(=O)Nc1ccc(-c2ccc(N3CCCC3)nn2)cc1
i,-1.5,CCOc1ccc(NC(=O)C2CCCN(c3cnc4ccccc4n3)C2)cc1 (stereo unspecified)

Additional records:
Anaer choline gr,Anaer choline gr early,smiles
i,-0.5,CCN(CC)S(=O)(=O)c1cccc(C(=O)CN2C(=O)c3ccccc3OC(C)C2=O)c1 (stereo unspecified)
i,-0.27,COc1ccc(-c2n[nH]c(CCNC(=O)Nc3ccc(C)c(C)c3)n2)cc1
i,-1,CC1CCN(S(=O)(=O)c2nnc(NC(=O)c3ccc(C(C)C)cc3)s2)CC1
i,0.34,Cc1ccc(-c2nnc(NC(=O)CN3CCN(S(=O)(=O)c4ccc(C(C)C)cc4)CC3)s2)cc1
i,0.4,Cc1cccc(NC(=O)c2ccc3c(c2)N(C)C(=O)CO3)c1
i,-1.2,COCCCNc1nc2ccccc2c2nc(CCn3c(C)nc4ccccc43)nn12

Whole records from above.
`Cc1cccc(NC(=O)c2ccc3c(c2)N(C)C(=O)CO3)c1` across the screens: Anaer choline gr = i; Anaer choline gr early = 0.4
`COc1ccc(-c2n[nH]c(CCNC(=O)Nc3ccc(C)c(C)c3)n2)cc1` across the screens: Anaer choline gr = i; Anaer choline gr early = -0.27
